Screens as filed in PubChem BioAssay.
CapD inh: Bacillus anthracis CapD inhibitors, primary screen, biochemical, fluorescence intensity; 140,000 compounds, 0.23% hits; purified CapD enzyme, fluorescence intensity read-out; hits give low values; some hits fall short of the stated cut; CapD gamma-glutamyltranspeptidase (Bacillus anthracis Ames Ancestor); z-score (concentration not given with the values);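 active means z-score under -4 in either of two replicates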;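 further: stock transfer was 100 nL into about 40 µL; score is relative to mean and spread of the plate; one replicate is shown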
AID504770: growth inhibition of E. coli YBA685, primary screen, V. cholerae RctB inhibitors. E. coli YBA685 rctB-dependent plasmid, OD600 growth, 3 h; hits give low values. z-score (test concentration not listed). 130,000 compounds, 0.27% hits. AID 504770, 2011;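 active means z-score under -2 on both plates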;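 further: wells of about 30 µL received 100 nL stock; score is relative to mean and SD of the test wells; the first replicate is given; strong numbers were not always called active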
* = called active by the depositor; nt = no result given; & = joins results of further samples.

SMILES	CapD inh	AID504770
C=CCNC(=S)Nn1c(C)nnc1-n1nc(C)cc1C	-0.44	0
O=C1CN(C(=O)c2ccc(N3CCOCC3)c([N+](=O)[O-])c2)c2ccccc2N1	-0.43	nt
N#C/C(=C\c1ccc(C2=CCOc3ccccc32)s1)S(=O)(=O)c1ccccc1	-2	0.25
Cc1ccc(C)c(N2C(=O)/C(=C/c3ccc(Br)cc3)C=C2c2ccccc2)c1	-0.14	nt
O=C1C=C(SCC(=O)c2ccccc2)SC(c2ccc(Cl)cc2)C1 (stereo not drawn)	0.055	0.3
CC1CCCCN1C(=O)CSc1nnc(C2CCCCC2)o1 (stereo not drawn)	nt	-0.6
Cc1ccc(CSc2ncnc3onc(C)c23)cc1	0.5	-0.6
CCOC(=O)c1nc(NCc2cccnc2)c2ccccc2n1	1.1	-0.8
O=C(Nc1ncc(C(F)(F)F)cc1Cl)c1cc2c(s1)CCC2	-0.46	-1
FC(F)(F)c1ccc(-c2ncc(-c3ccncn3)c(-c3ccc(C(F)(F)F)nc3)n2)cn1	-0.5	nt
OCC1(CO)CSC(=NCc2ccc(F)cc2)N1	-0.01	0.45
O=C(CCC(=O)n1ncc2ccc(Cl)cc21)NC1CCCc2ccccc21 (stereo not drawn)	0.99	-0.15
CC12CCC(c3c(C(F)(F)F)nc(N)nc31)C2(C)C (stereo not drawn)	-0.55	-0.4&2.2
COc1ccccc1-c1nnc(SC(C)c2nc3ccccc3c(=O)[nH]2)n1C (stereo not drawn)	nt	0.3
O=C(CC(C(=O)O)n1ccnc1)c1ccc(C2CCCCC2)cc1 (stereo not drawn)	0.34	-0.25
O=C(c1ccc2c(=O)n(CCc3c[nH]c4ccccc34)c(=S)[nH]c2c1)N1CCCCC1	-0.81	nt
CCCNCc1nnc(-c2ccco2)o1	nt	0.4
Cc1c(C)c(C)c(CSc2nnc(CC#N)n2C)c(C)c1C	0.51	-0.15
CN(CC(=O)Nc1sccc1C#N)Cc1ccccc1	nt	0.8
O=c1ccc(Cc2ccccc2Br)n[nH]1	-0.6	-0.1
CC1(C)CC(=O)C2=C(C1)Nc1[nH]c(=S)[nH]c(=O)c1C2c1ccccc1 (stereo not drawn)	5.1	nt
CC1=NN(C(=O)c2ccccc2)C(C)(O)C1(C)C (stereo not drawn)	nt	0.3
O=C1CCCC/C1=C/Nc1ccc2c(c1)OCO2	nt	0.8
O=C(c1c[nH]c(C(=O)C(Cl)(Cl)Cl)c1)c1ccc(F)cc1F	-0.67	nt
O=c1[nH]nc(-c2ccc(N3CCCCC3)c([N+](=O)[O-])c2)c2ccccc12	0.58	nt
CC(C)(C)c1ccc(CC/C=N/O)cc1	-0.64	0.55
O=c1/c(=C/c2cccs2)sc2nc(-c3ccccc3)c(-c3ccccc3)n12	-0.74	nt
Cc1cccc(N(C)C(=O)Cn2ncc3c(=O)oc4ccccc4c32)c1	0.18	0.1
O=C1CCCC2=C1C(c1ccc(N3CCOCC3)cc1)c1c([nH]c(=O)[nH]c1=O)N2 (stereo not drawn)	nt	0.15
O=C(c1ccc(S(=O)(=O)N2CCOCC2)cc1)N1CCCC1	-0.22	-0.8
Cc1nc(N2CCCCC2)c2c(C)c(C(=O)N3CC(C)CC(C)C3)sc2n1 (stereo not drawn)	-0.85	nt
COc1ccc(CCNC(=O)CSc2cc(Cl)nc3ccc(C)cc23)cc1OC	1.7	nt
Cc1cc(C(O)C(F)(F)F)c(C)n1CC(C)C (stereo not drawn)	nt	-1.4
CCC(=O)N1N=C(c2ccc(OC)cc2)CC1c1ccccc1O (stereo not drawn)	nt	2.7
Cn1cccc1Cc1nnc(SCC(=O)NC2CCCC2)n1C	-0.15	0.6
O=C1CC(c2ccccc2)n2nc(N3C(=O)CCC3=O)nc2N1 (stereo not drawn)	0.37	-1.1
O=C(O)c1ccccc1N=CC12c3ccccc3C(c3ccccc31)C1C(=O)N(c3cccc4ccccc34)C(=O)C12 (stereo not drawn)	-0.11	nt
NS(=O)(=O)c1ccc(NC(=O)Cn2ncc3c2-c2ccccc2OC3)cc1	-0.97	-0.45
O=C(COC(=O)c1cccs1)NC12CC3CC(CC(C3)C1)C2	-1.6	-0.85
CCCCCn1c(=O)c2ccccc2n2c(CN3C(=O)c4ccccc4C3=O)nnc12	nt	-0.9
COC(=O)CC1OC(=O)c2ccccc21 (stereo not drawn)	0.29	-1
Cc1[nH]c(=S)[nH]c1Cc1ccccc1	nt	-0.8
NC(=O)C1CCN(C(=O)OCCc2ccccc2F)CC1	0.065	nt
CCOC(=O)c1cc2c(ccn2-c2ccc(F)cc2)n1CC(=O)N1C(C)CCCC1C (stereo not drawn)	nt	0.8
COc1cc(C2C(C(=O)OC3CCCC3)=C(C)NC3=C2C(=O)CC(C)(C)C3)cc(Br)c1O (stereo not drawn)	3.6	nt
CCN1CCCC1CNc1ncnc2onc(-c3ccc(F)cc3)c12 (stereo not drawn)	-0.26	0.95
C/C(CCc1ccc2c(c1)OCO2)=N\N=C1/NC(=O)CC(C(=O)O)S1 (stereo not drawn)	nt	-0.55
CCCCCC(=O)c1ccc(O)cc1O	-0.33	-1.1
OC(CNCc1ccccc1F)(c1ccc(Cl)cc1)c1ccc(Cl)cc1	-0.49	nt
CCCCC(=O)N1CC(=O)Nc2ccc(F)cc2C1c1ccccc1 (stereo not drawn)	-0.45	1.4

Next part.
SMILES	CapD inh	AID504770
Cc1cc(C)nc(N(C)S(=O)(=O)c2ccc3oc(=O)ccc3c2)n1	0.43	nt
Cc1cc(C)c(NC(=S)NC(=O)c2ccccc2)c(C)c1	-0.4	0.75
N#Cc1c(-c2ccccc2Cl)cc(C2CC2)nc1N	22	0.55
O=C(C1CCN(S(=O)(=O)c2ccc3[nH]c4c(c3c2)CCCCC4)CC1)N1CCCC1	-0.16	0.65
CCCc1ccc(C(=O)CC#N)cc1	4.3	0.35
CC(C)(C)NC(=O)C1Cc2ccccc2CN1S(=O)(=O)c1cccs1 (stereo not drawn)	-0.19	0.1
CC(C)CNC(=O)C1CC(=O)N(Nc2ccccc2)C1 (stereo not drawn)	nt	0.25
CC(C)Sc1nnc(NC(=O)c2cc(Br)ccc2Cl)s1	-0.78	-0.75
CCOC(=O)c1ccc(Nc2ccc([N+](=O)[O-])cc2-c2nc3nc(-c4cc(C(C)(C)C)cc5c4CCC5(C)C)cn3[nH]c2=O)o1	2.9	nt
Cn1nc(-c2ccccc2)c(-c2nc(-c3cccc(Cl)c3)no2)c1Cl	0.28	nt

Sorted by SMILES length (falling): four of the compounds above.
SMILES	CapD inh	AID504770
Cn1nc(-c2ccccc2)c(-c2nc(-c3cccc(Cl)c3)no2)c1Cl	0.28	nt
Cc1cc(C)nc(N(C)S(=O)(=O)c2ccc3oc(=O)ccc3c2)n1	0.43	nt
CC(C)Sc1nnc(NC(=O)c2cc(Br)ccc2Cl)s1	-0.78	-0.75
N#Cc1c(-c2ccccc2Cl)cc(C2CC2)nc1N	22	0.55

(further entries)
SMILES	CapD inh	AID504770
COc1ccc(C(CC(=O)O)CC(=O)O)cc1	0.98	-0.2
Cc1c(CC(=O)O)sc2ccccc12	0.03	nt
c1ccc(CC2CCN(Cc3nnc(-c4ccc5c(c4)OCO5)o3)CC2)cc1	0.56	2.5
Cc1ccc(NC(=O)c2cc(N(C)C)ccc2[P+](=O)O)cc1	nt	-0.3
CCCn1nc(C(=O)N/N=C/c2ccc(O)cc2)c2ccccc2c1=O	nt	0.2
CC1CN(C(=O)COc2ccccc2C#N)CC(C)O1 (stereo not drawn)	1.1	0.3
N#C/C(=N\Nc1ccccc1)C(=O)C1CC1	-3.1	0.3
O=C(O)c1ccccc1NC(=O)N(C1CC1)C1CCN(Cc2ccccc2)CC1	0.91	nt
COc1cc(OC)cc(N2CCN(C(=O)OCc3c(F)cccc3Cl)CC2)c1	-0.06	nt
COc1ccc(C2=NN(C(C)=O)C(c3cccc(OCc4cccc5ccccc45)c3)O2)cc1 (stereo not drawn)	0.69	nt

The results go on.
| molecule | CapD inh | AID504770 |
| --- | --- | --- |
| CC1(C)NC(=S)N(c2nc3ccccc3s2)N1 | 1.7 | -0.15 |
| Cc1nc2cc(-c3ccccc3)nn2c(C)c1CCC(=O)O | 9.7 | -0.75 |
| COC(=O)c1ccc(OC)cc1OC(=O)COc1cccc(C)c1 | nt | -0.9 |
| CCOC(=O)c1c(N)c[nH]c1NCc1ccc(Cl)nc1 | 0.6 | -0.1 |
| CC(C)=CCOc1cc(C)cc2oc(=O)c3c(c12)CCCC3 | 6.5 | nt |
| O=c1cc(CSc2nnc(Cn3nnc4ccccc43)o2)c2ccccc2[nH]1 | nt | 0 |
| O=c1c(=O)n(OCc2ccccc2)c2ccccc2n1O | -2.3 | -0.4 |
| CN1C(=O)/C(=C2\SC(N)=NC2=O)c2ccccc21 | 0.005 | -0.2 |
| O=C(Cc1cscn1)c1ccc(O)cc1O | -2.5 | -0.4 |
| C(=N\c1c(-c2ccccc2)nc2n1CCS2)/c1ccccc1 | 0.35 | -0.2 |
| O=S(=O)(NCC(c1cccnc1)N1CCN(Cc2ccccc2)CC1)c1ccccc1 (stereo not drawn) | 0.57 | -0.15 |
| Cc1cc(C(=O)OC(C)C(=O)Nc2ccc(Cl)cn2)c(C)o1 (stereo not drawn) | nt | -0.55 |
| CC(C)(C)NC(N)=S | nt | -0.7 |
| CCCN(CCC)S(=O)(=O)c1ccc(C(=O)NN)cc1 | -0.53 | -0.5 |
| O=C(Nc1ccc(N2CCOCC2)cc1)C1=NCCN1 | nt | -0.55 |
| COc1ccc(NCC(O)Cn2c3ccc(Cl)cc3c3cc(Cl)ccc32)c(OC)c1 (stereo not drawn) | 0.42 | 2 |
| NNC(=O)COc1ccc2oc3c(c2c1)CCCC3 | nt | -0.65 |
| CCOc1cc(C=C2C(=O)NC(=S)NC2=O)ccc1OCCOc1ccccc1C | -1.3 | nt |
| C=CCn1c(C(C)NC(=O)Cc2ccccc2)nc2ccccc21 (stereo not drawn) | -0.025 | -0.8 |
| CCC(Sc1nc(NCCc2ccccc2)c2ccccc2n1)C(=O)NCc1ccco1 (stereo not drawn) | 0.32 | nt |
| N#CCCN1N=C(c2ccccc2)CC1=O | nt | -1.7 |
| O=C(CSc1nnc(-c2ccncc2)o1)N1c2ccccc2Sc2ccccc21 | -0.52 | -0.45 |
| NC(=O)CSc1ncnc2sc3c(c12)CCCC3 | 0.44 | 0 |
| Nn1c(=S)[nH]nc(Cc2ccco2)c1=O | -0.27 | -0.95 |
| CCCCNC(=O)Nc1ccn(C)n1 | 0.48 | -0.35 |
| COc1ccc(-n2cc(C#N)c(=O)n(Cc3ccc(F)cc3)c2=O)cc1 | 0.11 | nt |
| O=C(O)C1C2C=CC(C2)C1C(=O)O (stereo not drawn) | 0.62 | nt |
| CCOc1ccccc1C(=O)NCCc1cn2ccc(C)cc2n1 | 0.19 | -0.6 |
| CCCc1cc(C(=O)NC2CC2)cs1 | -0.14 | -0.65 |
| O=C(CCN1CCOCC1)Nc1cc(C(=O)Nc2ccc3c(c2)OCCO3)ccc1N1CC2CC(C1)c1cccc(=O)n1C2 (stereo not drawn) | 1.2 | nt |
| O=C1CC(c2ccccc2)=NO1 | 0.63 | nt |
| COc1nc(N)nc(SC)n1 | 0.12 | nt |

Reformatted: two of the compounds above.
Order of values: CapD inh	AID504770
- CCCc1cc(C(=O)NC2CC2)cs1
  -0.14	-0.65
- O=C(CCN1CCOCC1)Nc1cc(C(=O)Nc2ccc3c(c2)OCCO3)ccc1N1CC2CC(C1)c1cccc(=O)n1C2 (stereo not drawn)
  1.2	nt

Further entries
| molecule | CapD inh | AID504770 |
| --- | --- | --- |
| CC(C)=C1N=C(c2ccccc2)OC1=O | 1.3 | 2 |
| COc1cccc(C(=O)N2c3ccc(Cl)cc3-c3c(ssc3=S)C2(C)C)c1 | -0.3 | nt |
| CCOC(=O)c1ccc(N2CC3CCCCN3C2c2ccc(Cl)c(Cl)c2)cc1 (stereo not drawn) | 0.71 | nt |
| CCOC1(C(F)(F)F)NC(=O)N(c2ccc(OC)cc2)C1=O (stereo not drawn) | -0.1 | -0.6 |
| Brc1ccc(C2=CSC3=NCCN23)cc1 | 0.015 | -0.8 |
| COc1ccc(OCC(=O)Nc2ccc3oc(-c4ccncc4)nc3c2)cc1 | nt | -1.4 |
| CC(C)(C)NC(=O)C1CC2CCCCC2CN1C(=O)c1ccno1 (stereo not drawn) | -0.77 | -0.55 |
| CSc1nc(C)c2c(n1)CCCC2 | 0.005 | -0.85 |
| CCCCCCc1cc2cc(-c3csc(Nc4cc(OC)ccc4OC)n3)c(=O)oc2cc1O | 0.34 | nt |
| CC(C)(C)NC(=O)CS(=O)(=O)c1ccccc1 | -0.37 | -0.65 |
| COc1ccc2oc(C(=O)OCC(=O)NC3(C#N)CCCC3)c(C)c2c1 | nt | 0.9 |
| c1ccc(C2(Cn3ccc4ccccc43)OCCO2)cc1 | 0.02 | 0.1 |
| CCc1ccc(C2C(C(=O)OC)C(=O)CC(C)(O)C2C(=O)OC)cc1 (stereo not drawn) | 0.27 | -0.9 |
| O=C1CCN(C(=O)c2ccccc2)C2CCCCC12 (stereo not drawn) | nt | -0.8 |
| CC(C)OC(=O)c1cc(N)c2c(-c3ccc(F)cc3)c(-c3cccs3)sc2n1 | -2.4 | -0.15 |
| CCOC(=O)Cc1csc(NC(=O)CSc2nccn2C)n1 | 0.54 | -0.4 |
| CCn1c(SC)nnc1C1CCN(C(=O)C(OC)c2ccccc2)CC1 (stereo not drawn) | nt | -1.4 |
| O=C(COc1ccccc1)N/N=C/c1cccc(OCc2ccccc2)c1 | 0.21 | nt |
| CC(C)(Oc1ccc(Cl)cc1)C(=O)NCc1ccc2c(c1)CCO2 | 0.29 | 0.1 |
| Cc1cc(=O)[nH]c(SCc2nc3ccccn3c2Br)n1 | -0.2 | -0.75 |

Reprinted at random: 3 entries already listed.
| molecule | CapD inh | AID504770 |
| --- | --- | --- |
| CC(C)(Oc1ccc(Cl)cc1)C(=O)NCc1ccc2c(c1)CCO2 | 0.29 | 0.1 |
| O=C(COc1ccccc1)N/N=C/c1cccc(OCc2ccccc2)c1 | 0.21 | nt |
| Cc1cc(=O)[nH]c(SCc2nc3ccccn3c2Br)n1 | -0.2 | -0.75 |
